# Compound activity: PubChem, Fisher Drug Discovery Resource Center
# NPYLR7 agonist: mosquito NPYLR7 agonism; activation, % at 10 µM; HEK293T NPYLR7/Galpha15, GCaMP6s calcium fluorescence; 0.15% of 270,000 active; in the data active means activation above about 40%;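 further: 0% = vehicle and 100% = reference agonist at the receptor; some compounds past the cut are filed as inactive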
# NPYLR7 agonist max-min: also measured in NPYLR7 agonist; calls as there; activation, %; measured here: Max-Min RFU normalised activation; some inactives read as strong as hits;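 span of the calcium signal over five minutes; 0% = vehicle and 100% = native peptide agonist; compound fluorescence can raise it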
# Starred values were filed as active, the others as inactive. Some of the compounds tested. The share of hits here may be higher or lower than overall.
1) COCC(=O)N1CCN(c2ccc(OC)cc2OC)C(=O)C1C (configuration not stated)
2) COc1ccc(Cl)cc1S(=O)(=O)N1CCN(CCCOC(c2ccc(Cl)cc2)c2ccc(Cl)cc2)CC1
3) CN1CCN(C(CNS(=O)(=O)c2ccc(-c3ccccc3)cc2)c2ccsc2)CC1 (configuration not stated)
4) O=C(NCCC1COc2ccccc2O1)c1ccc(NCc2ccco2)nc1 (configuration not stated)
5) CCC(C(=O)NCc1ccco1)n1c(=O)n(Cc2ccccc2)c(=O)c2ccc(Cl)cc21 (configuration not stated)
6) CNC(=O)C1CCCCN1S(=O)(=O)c1cccc(C(F)(F)F)c1 (configuration not stated)
7) CC(C)S(=O)(=O)c1ccc(C(=O)N(Cc2ccncc2)c2nc3ccc(Cl)cc3s2)cc1
8) O=C(Nc1nnc(-c2ccc(Br)cc2)s1)C1CCCN1C(=O)c1ccc([N+](=O)[O-])cc1 (configuration not stated)
assay / entry	1	2	3	4	5	6	7	8
NPYLR7 agonist	0	3	-1	4	18	-1	-3	2
NPYLR7 agonist max-min	-2	2	-11	2	22	0	-8	3

9) CSc1ccc(CN(C)C(=O)Cn2nnc(-c3cccc(F)c3)n2)cc1
10) COc1cccc(CSc2nnc(CNC(=O)NC3CCCCC3)n2-c2cc(Cl)ccc2Cl)c1
11) c1coc(-c2ccc(-c3nccn3CCn3cccn3)cc2)c1
12) CC(C)c1c(C(=O)NCC2(N3CCOCC3)CCCC2)cnn1-c1nccc(-c2ccccc2F)n1
13) O=S(=O)(c1ccc2c(c1)CCC2)N1CCCN(c2ccc(C(F)(F)F)cn2)CC1
14) CC(C)NC(=O)N(Cc1nccn1Cc1ccc(Cl)cc1Cl)C1CCCCC1
15) COCC(=O)N1CCN(S(=O)(=O)c2ccccc2)[C@@H](C(=O)OC)C1
16) O=C1c2ccccc2C(=O)c2c1oc1c3c(ccc21)OCN(Cc1ccco1)C3
assay / entry	9	10	11	12	13	14	15	16
NPYLR7 agonist	27	-1	3	2	2	4	-8	3
NPYLR7 agonist max-min	20	5	0	-3	0	11	-14	7

17) CCC(C)(C)C1CCC2(CC1)NC(=O)N(CC(O)COc1cccc(C)c1)C2=O (configuration not stated)
18) Cc1ccc(-n2ncc3c(=O)n(NC(=O)COc4ccccc4)cnc32)cc1C
19) CCNC(=O)Nc1ccc(N(C)C)c(CN(C(=O)c2cccc(C)c2)C2CC2)c1
20) Cc1cnc(C(=O)N2CCN(S(=O)(=O)c3ccc(F)cc3)CC2)cn1
21) CCCCCCCCCc1ccc(-c2nc3ccccc3c(=O)o2)cc1
22) COc1cccc(C2Nc3ccccc3-c3nc4ccccc4n32)c1OC (configuration not stated)
23) O=C(Nc1nccs1)c1cccc(NC(=O)c2cnccn2)c1
24) COCCN(C(=O)CN1CCN(S(=O)(=O)c2ccc3c(c2)OCCCO3)CC1)C1=CCCCC1
assay / entry	17	18	19	20	21	22	23	24
NPYLR7 agonist	2	1	5	15	-8	-14	1	-10
NPYLR7 agonist max-min	8	-1	13	6	-13	-19	6	-11

25) CC(C)(C)NC(=O)Cn1nc(-c2ccccc2)c2sc(N3CCCC3)nc2c1=O
26) COc1cccc(C(=O)NCCN2CCn3cc(OC)c(=O)cc3C2=O)c1
27) O=C(c1c(C(F)(F)F)ccc(Cl)c1F)N1CCN(c2nccc(-c3ccc4c(c3)OCO4)n2)CC1
28) Cc1ccc(NC(=O)CC(=O)N2CCCN(C)C3(CCN(C)CC3)C2)cc1
29) COc1c(C)cc(Br)cc1C(=O)Nc1nnn(C)n1
30) CCc1cc(N(CC)CC)nc(SCc2ccc(C(=O)NCc3ccccn3)cc2)n1
31) CCCCN(C)C(=O)c1sc(=O)n(Cc2ccc(F)cc2)c1C
32) CC1(C)ON=C(c2ccccc2)N1c1ccccc1
assay / entry	25	26	27	28	29	30	31	32
NPYLR7 agonist	-2	10	11	5	0	-4	7	-3
NPYLR7 agonist max-min	-6	6	6	2	-1	-1	2	-5

33) O[C@H]1[C@@H]2CN(Cc3ccccc3)C[C@@H]2[C@@H]2O[C@H]1C[C@@H]2c1cccc(F)c1
34) O=C(Nc1ccc(Cl)cc1)c1ccc(SCc2ccccc2)nc1
35) CCc1ccc(-c2ccc(NC(C)c3ccccc3)nn2)cc1S(N)(=O)=O (configuration not stated)
36) CCCCNC(=O)N1CCN(c2ccccc2OC)CC1
37) COc1cc2cc(C3CC(c4ccco4)=NN3C(C)=O)c(Cl)nc2cc1OC (configuration not stated)
38) CC(C)C(C)N(C(=O)Nc1cn[nH]c1)C1CC1 (configuration not stated)
39) CN1CCN(C(C#N)c2ccc3c(c2)CCN3C)CC1 (configuration not stated)
40) Cc1cc(=O)[nH]c(-n2nc(C)cc2NC(=O)c2ccc3ccccc3c2)n1
assay / entry	33	34	35	36	37	38	39	40
NPYLR7 agonist	9	-4	-15	4	13	15	5	-3
NPYLR7 agonist max-min	18	-9	-22	0	17	9	5	-5

41) COc1cccc(-c2cc(-c3ccc(C(=O)N4CC=C(c5ccccc5)CC4)cc3)[nH]n2)c1
42) Cc1ccc(F)cc1NC(=O)C1CCN(C(=O)C(C)(C)C)CC1
43) CC(=O)N1CCC(N2CCCC2C(=O)Nc2ccc(-c3cccc(F)c3)cc2)CC1 (configuration not stated)
44) O=C(c1ccc(-c2ccc3c(c2)OCCO3)s1)N1CCc2ccccc2C1c1ccccc1Cl (configuration not stated)
45) O=C(Nc1cc(C2CC2)[nH]n1)c1ccc(Br)cc1
46) O=C(CCN(CCc1ccccc1)c1nc(-c2ccccc2Cl)nc2cc(Cl)ccc12)NCc1ccccc1
47) CC1(c2ccc(F)cc2)NC(=O)N(CC(=O)N2CCCCC2)C1=O (configuration not stated)
48) Cc1ccc(C)c(NS(=O)(=O)c2cnc[nH]2)c1
assay / entry	41	42	43	44	45	46	47	48
NPYLR7 agonist	27	1	2	26	-1	-1	-18	14
NPYLR7 agonist max-min	21	0	-2	11	-2	-1	-19	9

49) CCc1ncc2c(n1)CN(C(=O)C1Cc3ccccc3CN1CC)C2 (configuration not stated)
50) CCOC(=O)c1ccc(N=c2scc(-c3ccc(OC)cc3)n2CC2CCCO2)cc1 (configuration not stated)
51) CC(C)c1[nH]nc2c1C(c1cccs1)C(C#N)C(=N)O2 (configuration not stated)
52) COCCN(CCOC)C(=O)CCc1ccc(-c2ccc(F)cc2)n1-c1ccc(NC(C)=O)cc1
53) Cn1nc(C(=O)O)c2c1CCN(C(=O)COCC1CCCCO1)C2 (configuration not stated)
54) O=[N+]([O-])c1ccc(C2SCCS2)cc1
55) O=C(NCC1CCCO1)c1cnn2c1NC(c1ccc(F)cc1)CC2C(F)(F)F (configuration not stated)
56) CC(=O)NC(C)CC(=O)Nc1ccc(C(=O)OC2CCCC2)cc1 (configuration not stated)
assay / entry	49	50	51	52	53	54	55	56
NPYLR7 agonist	0	-5	2	5	9	-2	0	7
NPYLR7 agonist max-min	1	-12	0	0	8	-2	-5	-3

57) CC12CN3CC(C)(CN(C1)C31C(=O)Nc3ccc(Br)cc31)C2=O (configuration not stated)
58) O=C(NC1CCCCC1)N1CCn2cccc2C1c1ccc(Br)cc1 (configuration not stated)
59) Cc1oc2ccccc2c1C=NNc1nc2ccccc2s1
60) CCOC(=O)[C@H](CCc1ccccc1)N[C@@H](C)C(=O)N1C(C(=O)O)C[C@@H]2CCC[C@@H]21 (some centres not stated)
61) Nc1cc2c(cc1[N+](=O)[O-])OCC(=O)N2
assay / entry	57	58	59	60	61
NPYLR7 agonist	10	21	8	5	11
NPYLR7 agonist max-min	10	18	5	-7	15
